Source: PubChem BioAssay
VDR inh – Inhibitors of the vitamin D receptor (VDR): qHTS | Vitamin D3 receptor (Homo sapiens), P11473 | VDR-SRC2-3 peptide fluorescence polarization, 2 h | Potency, µM, without a hit: max response, negative = inhibition, actives largely listed as inhibitors | 0.93% of 400,000 active | AID 504847, 2011; active = well fitted inhibition curve with a large enough effect; inconclusive = small, poorly fitted or top-dose-only effect, or another doubt; inactive = no such curve, though single readings can be large or run the other way; also: series mostly up to about 120 µM
Target sequence (P11473 whole entry, looked up): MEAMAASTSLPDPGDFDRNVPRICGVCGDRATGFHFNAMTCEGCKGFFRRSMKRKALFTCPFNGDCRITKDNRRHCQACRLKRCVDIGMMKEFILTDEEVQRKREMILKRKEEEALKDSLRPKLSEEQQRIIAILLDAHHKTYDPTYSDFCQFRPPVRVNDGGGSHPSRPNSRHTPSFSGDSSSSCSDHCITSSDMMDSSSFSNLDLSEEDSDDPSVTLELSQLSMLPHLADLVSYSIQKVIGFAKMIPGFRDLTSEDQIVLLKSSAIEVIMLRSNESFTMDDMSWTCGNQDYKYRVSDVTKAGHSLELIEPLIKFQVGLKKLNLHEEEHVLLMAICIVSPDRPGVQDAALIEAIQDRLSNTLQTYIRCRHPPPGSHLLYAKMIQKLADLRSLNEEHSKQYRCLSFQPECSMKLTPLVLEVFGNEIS
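Two reagent solutions held at 4 deg C in the dark were dispensed, compounds pinned at 23 nl, and the mixture incubated 2 h at room temperature. Read-out: fluorescence polarization of VDR–SRC2-3 peptide binding.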
An asterisk follows results filed as active; ? = inconclusive. % is scaled to controls: 0 for no effect and ±100 for the full control effect; potency is read from the fitted curve at half-maximal effect. Some of the compounds tested, so the mix of outcomes need not match the whole.

No.	SMILES	VDR inh
1	COCCn1c(SCC(=O)N2CCC(C)CC2)nc2ccccc2c1=O	-19%
2	COC(=O)c1cccc(N(CC(=O)NC2CCCCC2)C(=O)CNC(=O)c2cccs2)c1	-8%
3	O=C(Cn1cc(COc2ccc(C(=O)c3ccccc3)cc2)nn1)c1ccc(O)cc1	17%
4	COc1cc(CN2CCN(Cc3ccco3)CC2)cc(OC)c1	0%
5	COc1ccc(-c2nc3nc(C)cc(N4CCN(c5cccc(C(F)(F)F)c5)CC4)n3n2)cc1	16%
6	Clc1ccc(CNc2ncnc3[nH]ncc23)c(Cl)c1	9%
7	COc1cccc(NC(=O)CSc2nnc(Cc3cccs3)n2-c2ccc(C)cc2)c1	-1%
8	Cc1occc1-c1nnc(SCC(=O)c2c[nH]c3ccccc23)n1C	-22%
9	COc1ccc(C(C)NC(=O)CC23CC4CC(CC(C4)C2)C3)cc1 (stereo unspecified)	-14%
10	CN(C)CCn1c(N)nc2ccccc21	14%
11	O=C(Nc1ccc(CN2CCOCC2)cc1)c1ccccc1F	9%
12	O=C(Nc1ccc(S(=O)(=O)NC2CCCCC2)cc1)c1ccco1	-2%
13	CCC(O)C1CCN(C(=O)c2cc(COc3ccc(F)cc3F)on2)CC1 (stereo unspecified)	-6%
14	COc1ccc(/C=N/NC(=O)c2ccc(NC(=O)c3cccc([N+](=O)[O-])c3)cc2)c(OC)c1	6%
15	CC(=O)N/N=C(\C)c1cccc(C(F)(F)F)c1	9%

Additional entries
No.	SMILES	VDR inh
16	CCCN(Cc1nnc(-c2ccccc2Cl)o1)C(=O)c1cccc(S(=O)(=O)N2CCOCC2)c1	-1%
17	CCC(=O)N(Cc1cc(=O)[nH]c2ccccc12)c1ccccc1C	8%
18	O=c1ccc(Cl)nn1-c1ccccc1	?
19	CCOCCOC(=O)C1=C(C)NC(=O)NC1c1cc2c(cc1Br)OCO2 (stereo unspecified)	-6%
20	COc1cccc(CNS(=O)(=O)c2c(C(=O)N3CCCCC3)c(C)n(C)c2C)c1	-10%
21	CCOC(=O)NC1=NCC(C)(C)S1	-10%
22	CCN(CC(=O)NC1CCS(=O)(=O)C1)C(=O)/C=C/c1cccs1 (stereo unspecified)	3%
23	COc1cc(/C=N/n2nnnc2N)cc(OC)c1OC	1%
24	O=C(O)CCC(=O)Nc1ccc(N2CCOCC2)cc1	-16%
25	COc1ccc(C(=O)O/N=C2\C(=O)N(C)c3ccccc32)cc1	-6%
26	CCOC(=O)N1CCC(NC(=O)c2cnn(-c3ccc(C)cc3C)c2C2CCN(C(=O)OC(C)(C)C)CC2)CC1	10%
27	CCc1nn(CC(=O)Nc2ccc(C)c(F)c2)c(=O)c2cc3cc(C)ccc3n12	-6%
28	CCN(C(=O)COC(=O)/C=C/c1cccc([N+](=O)[O-])c1)c1ccccc1	-17%
29	Cc1ccc(CNC(=O)c2cc(-c3ccccc3)nn2CC2CC(c3cccnc3)=NO2)cc1 (stereo unspecified)	17%
30	CCc1ccc(-c2cc3c(=O)n(CC(=O)N4CCCCCC4)nc(C)n3n2)cc1	7%

Entries shown so far that have a CF3 group (two):
No.	SMILES	VDR inh
5	COc1ccc(-c2nc3nc(C)cc(N4CCN(c5cccc(C(F)(F)F)c5)CC4)n3n2)cc1	16%
15	CC(=O)N/N=C(\C)c1cccc(C(F)(F)F)c1	9%

Further records:
No.	SMILES	VDR inh
31	Cc1cc(C=O)c(C)c2c1[nH]c1ccccc12	25%
32	C=CC[n+]1c(C)csc1Nc1ccc(C(=O)O)cc1	3%
33	CC(=O)NS(=O)(=O)c1cccnc1Nc1ccc(Cl)cc1	-3%
34	O=C1C2C3C=CC(C3)C2C(=O)N1c1n[nH]c(-c2cccnc2)n1 (stereo unspecified)	12%
35	COc1ccc(-c2nc3n(n2)C(=O)CC(c2ccco2)S3)cc1 (stereo unspecified)	14%
36	O=C(CSc1ncnc2scc(-c3ccccc3)c12)Nc1ccc(C(=O)O)cc1	-10%
37	O=C(NCc1ccc(Cl)cc1)c1ccc2c(Cl)c3c(nc2c1)CCCC3	-15%
38	COc1ccccc1NC(=O)CSc1nnnn1-c1ccc(C)cc1	2%
39	COc1ccc(Nc2nc3ccccc3nc2NS(=O)(=O)c2ccc(C)cc2)c(OC)c1	-5%
40	C[C@@]1([C@@H](NC(=O)c2cccs2)c2ccc(-c3ccccc3)cc2)C[C@H]1C1CCCCC1	-17%
41	O=S(=O)(Nc1ccc(-c2cn3ccccc3n2)cc1)c1ccccc1	-10%
42	Cc1ccc(N2C(=O)Nc3ccc(Br)cc3C2(O)C(=O)NCCCN(C)C)cc1C (stereo unspecified)	2%
43	Cc1c(C)n(CCCN(C)C)c2ncnc(NCc3ccccc3)c12	9%
44	CCOC(=O)C1=NNC2C(=O)N(C3CCCCC3)C(=O)C12 (stereo unspecified)	-8%
45	COc1ccc(CNC(=O)COC(=O)CCC2CCCCC2)cc1	-9%

Additional records.
No.	SMILES	VDR inh
46	Cc1ccc(NC(=S)N2CCN(C)CC2)c(C)c1	-15%
47	CC(NS(=O)(=O)/C=C/c1ccccc1)C(=O)NCCc1ccc(S(N)(=O)=O)cc1 (stereo unspecified)	-11%
48	Cc1ccc(C(=O)C2C(c3ccc(-c4ccccc4[N+](=O)[O-])o3)NC(=O)NC2(O)C(F)(F)F)cc1 (stereo unspecified)	-4%
49	COC(=O)/C=C/c1c(C)[nH]c(=O)[nH]c1=O	15%
50	CC(C)N(Cc1ccccc1)C(=S)Nc1cccnc1	6%
51	CCOC(=O)Cn1cncc1-c1ccc([N+](=O)[O-])cc1	4%
52	COc1ccc2c(c1)c1ncn(Cc3ccccn3)c(=O)c1n2C	-17%
53	CC(C)NS(=O)(=O)c1ccc(OCC(=O)Nc2ccc3c(c2)OCO3)cc1	1%
54	O=C(NC1CCCCCCC1)C1CCN(S(=O)(=O)N2CCCC2)CC1	3%
55	Cc1c(Cl)cccc1N1C(=O)c2ccccc2C1=O	-11%
56	CC(C)(CO)C(O)C(=O)NCCC#N (stereo unspecified)	-19%
57	CCC(C)(C)NC(=O)C(c1ccc(OC)cc1)N(C(=O)CCC(=O)Nc1cc(C)on1)c1ccc2c(c1)OCCO2 (stereo unspecified)	-23%
58	CC(C)NC(=O)c1onc(CSc2nc3ccccc3[nH]2)c1C(=O)NC(C)C	-2%
59	CCc1nnc(NC(=O)c2ncc(Cl)c(Cl)c2Cl)s1	-2%
60	O=C(NCC1CCCO1)c1ccc(N2CCCCC2)c([N+](=O)[O-])c1 (stereo unspecified)	4%

Continued:
No.	SMILES	VDR inh
61	CCOC(=O)N1CCN(c2c(NCCOC)c(=O)c2=O)CC1	-12%
62	O=C(Nc1cccc(Br)c1)c1ccc2c(c1)SC1=NS(=O)(=O)CCN12	6%
63	O=S(=O)(Nc1ncccn1)c1ccc(Nc2ncnc3ccccc23)cc1	10%
64	CC(C)Oc1ccc(C(=O)NCc2ccco2)cc1	-5%
65	Brc1ccc(-c2c(-c3ccsc3)sc3ccccc23)cn1	-27%
66	CN1CCN(C(=O)C(=O)c2cn(CC(=O)N3CCCC3)c3ccccc23)CC1	-12%
67	Cc1ccc(C(=O)N[C@H](C(=O)NC2CCCCC2)C(C)C)cc1	-4%
68	Cc1nc2cncc(Br)c2n1C	2%
69	CC(=O)Nc1ccc(NC(=O)COC(=O)CCNS(=O)(=O)c2c(Cl)cccc2Cl)cc1	-9%
70	Nn1cnnc1SCC(=O)N1CCc2ccccc2C1	-2%
71	O=C1N/C(=N\N=C\c2cccs2)SC1Cc1ccc(Cl)cc1Cl (stereo unspecified)	-1%
72	Nc1n[nH]c(N)c1N=Nc1ccc(F)cc1	-13%
73	Cc1cc(NC(=O)CSc2c(C)[nH]c3ccccc23)no1	-13%
74	COc1ccccc1CNC(=O)C(=O)NCC1CCCO1 (stereo unspecified)	-6%
75	O=c1[nH]nc(-c2ccc(NCCCO)c([N+](=O)[O-])c2)c2ccccc12	-5%

New compounds follow
No.	SMILES	VDR inh
76	O=C(COC(=O)CNC(=O)c1ccccc1)NC(=O)NC1CCCCC1	10%
77	COc1cccc(-c2cc(NCc3cnc(C)cn3)ncn2)c1	-15%
78	CCSc1cc(N2CCOCC2)nc(-c2ccccc2)n1	8%
79	CC(=O)c1ccc(Oc2nc3c(c(=O)n(C)c(=O)n3C)n2C)cc1	11%
80	Cc1cc(NC(=O)Cn2nc(-c3cccs3)ccc2=O)cc(C)c1Br	16%
81	Cc1ccc(C(=O)OCc2nc3ccccc3s2)o1	-12%
82	COCCNc1nc2nonc2nc1NC(C)c1ccccc1Cl (stereo unspecified)	-5%
83	CC(=O)Nc1cc(C(=O)N2CCc3ccccc3C2)ccc1Sc1ccc(F)cc1	1%
84	Brc1cc2c(cc1/C=N/Nc1nc(N3CCOCC3)nc(N3CCOCC3)n1)OCO2	5%
85	COC(=O)C(CCSC)Nc1ncnc2onc(-c3ccc(F)cc3)c12 (stereo unspecified)	-14%
86	COc1cccc(/C=C/C(=O)N2CCN(c3n[nH]c(=O)[nH]c3=O)CC2)c1OC	2%
87	Cc1ccccc1/C=N/n1c(-c2ccccn2)n[nH]c1=S	0%
88	CCC(C)C(=O)Nc1nc2ccc(OC)cc2s1 (stereo unspecified)	-8%
89	Cc1cccc(N2C(=O)CS/C2=N\NC(=O)c2cccnc2)c1C	-1%
90	Cn1c(=O)c2[nH]c(NCCCN3CCOCC3)nc2n(C)c1=O	-4%

Later entries
No.	SMILES	VDR inh
91	CC1CCN(S(=O)(=O)c2cccc(C(=O)O)c2)CC1	-12%
92	O=C(Nc1ccc(F)cc1)c1cc2cc3ccc(Cl)cc3nc2o1	-29%
93	COC(=O)NCC12CC3CC(C1)CC(CNC(=O)OC)(C3)C2	-3%
94	O=[N+]([O-])c1ccc(/C=N/n2c(CO)nc3ccccc32)s1	-8%
95	CCCN(CCC)CCNC(=O)CCC(=O)Nc1ccc2nc(N3CCOCC3)cc(C)c2c1	-10%
96	Cc1ccccc1NS(=O)(=O)c1csc(C(N)=O)c1	-1%
97	CCOc1ccccc1C=Nc1ccccc1C(=O)Nc1ccccc1	25µM*
98	CCOc1ccc2nc(NC(NC(C)=O)(C(=O)OC)C(F)(F)F)sc2c1 (stereo unspecified)	-6%
99	Cc1cc(N/N=C/c2ccc3c(c2)OCO3)nc2ccccc12	-6%
100	CC(=O)Nc1ccc(Nc2nc(-c3cc4ccccc4oc3=O)cs2)cc1	4%
101	CCOC(=O)N/N=C/c1cccc(Cl)c1Cl	-5%
102	CCOC(=O)c1sc2ncn(/N=C/N(C)C)c(=O)c2c1C	-2%
103	COc1cccc(Cn2c(=O)c(-c3ccc(F)cc3)nc3cnc(N4CCOCC4)nc32)c1	-2%
104	COc1ccc(N2C(=O)C3C4C=CC(CC4)C3C2=O)c([N+](=O)[O-])c1 (stereo unspecified)	-2%
105	CCOC(=O)c1ccc(N=C2SC(C(=O)NC)CC(=O)N2Cc2ccc(F)cc2)cc1 (stereo unspecified)	-2%

Structures listed so far printed as active in VDR inh:
No.	SMILES	VDR inh
97	CCOc1ccccc1C=Nc1ccccc1C(=O)Nc1ccccc1	25µM*

(more compounds)
No.	SMILES	VDR inh
106	CC1CN(C(=O)N2CCC(C(=O)NCc3ccco3)CC2)c2cc(Cl)ccc2O1 (stereo unspecified)	4%
107	CC1CCCCN1S(=O)(=O)c1ccc(NC(=O)c2ccco2)cc1 (stereo unspecified)	-7%
108	CC(C(=O)OCC(=O)Nc1cccc(S(=O)(=O)N2CCOCC2)c1)N1C(=O)c2ccccc2C1=O (stereo unspecified)	14%
109	O=C(c1ccc2c(c1)OCO2)N1CCN=C1SCc1cccnc1	-11%
110	O=C(Cn1cnc2c(cnn2-c2ccc(F)cc2)c1=O)N1CCN(c2ccccc2F)CC1	7%
111	O=C(Nc1ccc(OCC(=O)N2CCOCC2)cc1)c1ccccc1Cl	4%
112	COC(=O)c1cc(-c2ccc(OC)cc2F)nc2nc(SC)[nH]c(=O)c12	2%
113	CC(C)(C)n1[nH]c2c3c(ccc2c1=O)C(=O)c1ccccc1C3=O	10%
114	CCCCNC(=O)CSc1nc2ccccc2c(=O)n1Cc1ccc2c(c1)OCO2	8%
115	COC(=O)CN1C(=O)N/C(=C/c2ccc(OC)cc2)C1=O	-6%
116	O=C(CN1CCOCC1)NCC12CC3CC(CC(C3)C1)C2	3%
117	Cc1ccc(Cl)cc1N1CCN(CCCNc2ncnc3onc(-c4ccc(F)cc4)c23)CC1	10%
118	CCn1nc(C(=O)OC2CCOC2=O)c2ccccc2c1=O (stereo unspecified)	2%
119	NC(=O)COC(=O)c1cc(-c2cccs2)nn1-c1ccccc1	-10%
120	CC(Sc1nc(-c2ccccc2)cc(C(F)(F)F)n1)C(=O)NCc1ccco1 (stereo unspecified)	-8%

New compounds follow:
No.	SMILES	VDR inh
121	C=CCn1c(=N)n(CC(O)COc2ccccc2OC)c2ccccc21 (stereo unspecified)	3%
122	CCCCC(=O)Nc1sc2c(c1C#N)CC(C)(C)OC2	79µM*
123	Cc1ccc(S(=O)(=O)C(CNC(=O)C(=O)NCCc2ccc(Cl)cc2)c2cccs2)cc1 (stereo unspecified)	-4%
124	COc1ccc(-n2cc(C(=O)NCc3ccccc3Cl)c3ccccc3c2=O)cc1	3%

Part of the list above, as labelled records.
[66] CN1CCN(C(=O)C(=O)c2cn(CC(=O)N3CCCC3)c3ccccc23)CC1
  VDR inh: -12%

[67] Cc1ccc(C(=O)N[C@H](C(=O)NC2CCCCC2)C(C)C)cc1
  VDR inh: -4%

[68] Cc1nc2cncc(Br)c2n1C
  VDR inh: 2%

[69] CC(=O)Nc1ccc(NC(=O)COC(=O)CCNS(=O)(=O)c2c(Cl)cccc2Cl)cc1
  VDR inh: -9%
